# Vaccinia Venus: vaccinia inhibition (Venus reporter). Vaccinia virus Venus reporter expression, fluorescence. Potency, µM (top dose mostly 36.5 µM), without a hit: top-dose activity change, negative = inhibition, usual class: inhibitors. 0.46% of 330,000 active. AID 720580; active means well fitted inhibition curve with a large enough effect; inconclusive means small, poorly fitted or top-dose-only effect; inactive means no such curve, though single readings can be large or run the other way; tested in A549 cells; note: nearly all actives have a fitted effect of over 30% in size; inactives centre near -10
# VACV mCherry inh: vaccinia inhibition (mCherry reporter); 0.63% of 310,000 active; Potency, µM (top dose mostly 36.5 µM), for the others: top-dose activity change, negative = inhibition, actives largely listed as inhibitors; Vaccinia virus mCherry reporter infection, fluorescence; about a quarter of the inactives have no number; active = well fitted inhibition curve with a large enough effect; inconclusive = small, poorly fitted or top-dose-only effect; inactive = no such curve, though single readings can be large or run the other way; tested in A549 cells; note: nearly all actives have a fitted effect of over 35% in size; inactives centre near -10
# An asterisk follows results filed as active; i = inactive; ? = inconclusive; / = no result given; [ ] = another dose, or the depositor's remark. % is set by controls: 0 for no effect and ±100 for the full control effect; potency is the fitted concentration of half-maximal effect.
SMILES,Vaccinia Venus,VACV mCherry inh
O=C(Nc1ccon1)c1cc(-c2ccccc2)nc2ccccc12,-10.5%,/
COC(=O)N1CCCCC1c1cc(C(=O)N2CCOCC2)no1 (configuration not stated),-0.7%,i
Cc1ccc(S(=O)(=O)N(C)C)cc1NC(=O)COC(=O)/C=C/c1ccc(F)cc1,-6.2%,-15.7%
CCC(C)(C)n1nnnc1C(c1cc2cc(OC)ccc2[nH]c1=O)N1CCc2ccccc21 (configuration not stated),-15.8%,-24.5%
Cc1ccc2nc(-c3cccc(NC(=O)CSc4ccc(Cl)cc4)c3)oc2c1,-20.2%,-13.3%
CN(Cc1cccnc1)C(=O)CCCc1c[nH]c2ccccc12,-6.6%,-3.8%
CCCSc1nnc(NC(=O)c2ccco2)s1,-6.5%,i
CCc1ccc(OC(C)C(=O)N(Cc2ccccc2)C2CCS(=O)(=O)C2)cc1 (configuration not stated),-11.6%,-14.4%
CCN(CC)c1nc2n(c(=O)n1)CCO2,-7.1%,-23.6%
O=C(Nc1ccc(Cl)cc1Cl)[C@@H]1CC=C[C@@H]2CCN(Cc3ccccc3)C(=O)[C@@H]21,-17.6%,-27.0%
Cc1nn(C)cc1C(C)Nc1nc2nonc2nc1N1CCCCC1 (configuration not stated),-15.0%,i
CCCCN(C)CCCNC(=O)CN1C(=O)COc2ccc(S(=O)(=O)N3CCC(C)CC3)cc21,-7.8%,-10.5%
CCCCCCCCN1C(=O)[C@H](CC(=O)NCCC(C)C)C[C@@]2(C(=O)OCC)CCC=C12,?,-15.8%
Cc1c(C#N)c(N)nc(Cl)c1C#N,-16.6%,-23.7%
CCOC(=O)[C@]12CCCC=C1N(Cc1ccc(Cl)cc1Cl)C(=O)[C@H](CC(=O)NCCCOC)C2,-2.4%,-4.6%
Cc1ccc2nc(NC(=O)CCCc3nc4ccccc4s3)sc2c1,-24.2%,/
COc1ccc(CCN2CC(C(=O)N(C)Cc3ccccc3OC)CCC2=O)cc1 (configuration not stated),-12.3%,-12.7%
CCc1ccc(NC(=O)C2CCCN(S(=O)(=O)c3cccc4cccnc34)C2)cc1 (configuration not stated),-12.4%[7.34 µM],-8.2%[7.34 µM]
CCN(CC)c1ccc(/C=N/NS(=O)(=O)c2ccc(C)c([N+](=O)[O-])c2)cc1,0.6%,-10.5%
N#Cc1nc(-c2ccc(OCc3ccc(Cl)cc3)cc2)oc1N1CCCCCC1,5.3%,16.3%

# Rewritten with each value named: four of the compounds above
> CN(Cc1cccnc1)C(=O)CCCc1c[nH]c2ccccc12
  Vaccinia Venus: -6.6% | VACV mCherry inh: -3.8%

> CCN(CC)c1nc2n(c(=O)n1)CCO2
  Vaccinia Venus: -7.1% | VACV mCherry inh: -23.6%

> Cc1c(C#N)c(N)nc(Cl)c1C#N
  Vaccinia Venus: -16.6% | VACV mCherry inh: -23.7%

> CCN(CC)c1ccc(/C=N/NS(=O)(=O)c2ccc(C)c([N+](=O)[O-])c2)cc1
  Vaccinia Venus: 0.6% | VACV mCherry inh: -10.5%

# The listing continues:
SMILES,Vaccinia Venus,VACV mCherry inh
CC(=O)Nc1cccc(Nc2nc(-c3ccccc3)nc3ccccc23)c1,-29.0%,?
CCC(=O)N1CCN(c2ccc(NC(=O)COc3ccc(CC)cc3)cc2)CC1,-7.8%,-10.9%
O=C(Cc1cccs1)OCC(=O)c1ccco1,4.5%,/
CC1CCN(c2ccc([N+](=O)[O-])cc2C(N)=O)CC1,3.8%,-13.0%
CCOc1cc(NC(=S)Nc2ccc(Cl)cc2)c(OCC)cc1NC(C)=O,-15.7%,-23.2%
CCN(CC)c1ccc(NC(=S)NCC2CCCO2)cc1 (configuration not stated),-7.4%,?
COc1ccc(C(C(=O)NC2CCCC2)N(Cc2ccccc2)C(=O)c2nsc(Cl)c2Cl)cc1 (configuration not stated),?,-26.2%
C/C(=N/NC(=O)C1CCCN1C(=O)c1ccc([N+](=O)[O-])cc1)c1ccc(Br)cc1 (configuration not stated),-24.2%,?
COc1ccc(Cl)cc1NC(=O)C(=O)NCc1ccncc1,-15.1%,i
C=CCn1c(SCC(=O)c2[nH]c(C)c(C(=O)OCC)c2C)nc2scc(-c3ccccc3)c2c1=O,-11.8%,-11.2%
CCOc1ccc(CNCCSc2nnnn2C)cc1,0.6%,6.1%
CSCCNCc1c(C(=O)N2CCOCC2)nc2c(C)cccn12,-5.9%,-13.1%
Oc1c(Br)cc(Br)cc1/C=N/Nc1ccc(Cl)nn1,-7.1%,-13.0%
O=C(c1ccc(Br)o1)N1CCN=C1SCc1cccnc1,-11.2%,-6.7%
O=C1CN(C(=O)COc2c(Cl)cccc2Cl)c2ccccc2N1,-14.2%,-3.5%
COc1ccc(-c2ccc(=O)n(CC(=O)NCCc3ccccc3)n2)cc1,-8.2%,-13.1%
CC(C)c1cc(CNC(=O)CCc2nnc(CCCCc3ccccc3)o2)on1,0.7%[7.34 µM],-4.8%[7.34 µM]
CC(=O)c1c(C)[nH]c(C(=O)N2CCN(S(=O)(=O)c3ccc(F)c(F)c3)CC2)c1C,?,?
Cn1c(=O)n(C)c2cc(S(=O)(=O)NCc3ccco3)ccc21,-2.3%,/
COc1ccc(OC)c(NC(=O)CCNS(=O)(=O)c2ccc3c(c2)c(=O)n(C)c(=O)n3C)c1,-8.1%,-18.7%
COC(=O)c1sc(N2C(=O)C(O)=C(C(=O)c3ccc(C)o3)C2c2ccc(F)cc2)nc1C (configuration not stated),-3.3%,i
Cc1cc(C(=O)NC2CCCC(C)C2C)c2ccccc2n1 (configuration not stated),-11.1%,-11.7%
COc1ccc(NC(=O)C2CC3C=CC2C3)c([N+](=O)[O-])c1 (configuration not stated),-18.2%,i
Cc1ccc(OCc2ccc(C(=O)Nc3ccc(C(N)=O)cc3)o2)c([N+](=O)[O-])c1,-12.0%,i
Cn1cccc1Cc1nnc(SCC(=O)NCCc2ccccc2)n1C,-7.9%,i
CC(C)N(C(=O)[C@H]1C[C@H](CC(=O)NCCCN(C)C)C(=O)N2CCc3c([nH]c4cc(-c5ccco5)ccc34)[C@]12C)C(C)C,?,10µM*
CC(C)Cn1c(N)c(C(=O)COC(=O)C2CCCN2C(=O)c2cccs2)c(=O)n(C)c1=O (configuration not stated),-8.0%,i
N/C(=N\OC(=O)c1cccc(F)c1)c1cccc([N+](=O)[O-])c1,-1.6%,i
Cc1cc(C)c(NC(=O)C2CCCN(S(=O)(=O)c3c(C)noc3C)C2)c(C)c1 (configuration not stated),-1.9%,-1.2%
CCN(CC)c1ccc(NC(=O)COC(=O)C2CCN(c3ccc(C(F)(F)F)cn3)CC2)cc1,6.2%,-9.0%
Cn1ccnc1SCC(=O)Nc1cc(Cl)ccc1Cl,9.0%,8.7%
Cc1ccc(C)c(NC(=O)Cn2c(=O)n(Cc3ccc4c(c3)OCO4)c(=O)c3oc4ccccc4c32)c1,-8.6%,-8.2%
Cc1ccccc1CNC(=O)C(=O)NCC1CCCN1S(=O)(=O)c1ccccc1 (configuration not stated),-20.6%,-2.9%
COC(=O)[C@@H]1C[C@H]2CC[C@H](O)C[C@H]2N1Cc1ccc(C(F)(F)F)cc1,-5.4%,i
O=C(Cc1ccccc1)Nc1ccc(-c2nnc(-c3ccco3)o2)cc1,8.3%,-11.8%
CCCCCOc1ccc(C2C(C(C)=O)=C(C)Nc3ncnn32)cc1OC (configuration not stated),-25.7%,/
CN(C)C(=O)Nc1cnc2ccccc2c1,-8.6%,i
CC(C)CC(C)c1cc(N)nc2nc3ccccc3n12 (configuration not stated),-21.5%,i
CC(=O)Nc1cccc(-c2ccnc3c2CC(C)(C(=O)Nc2ccc(Cl)cc2)O3)c1 (configuration not stated),?,-28.4%
CC(C)C(C(=O)Nc1ccc2c(c1)OCCO2)N1C(=O)c2ccccc2C1=O (configuration not stated),?,-20.2%
Cn1c(N)c(C(=O)COC(=O)c2ccccc2NCc2ccco2)c(=O)n(C)c1=O,-15.5%,i
Cc1cc(C)c(S(=O)(=O)N2CCOCC2)cc1C,-8.8%,2.5%
O=C(Cn1ncc2c(=O)oc3ccccc3c21)N1CCCc2ccccc21,8.0%,7.2%
C=CCN1C(=O)/C(=C/c2ccc(N3CCOCC3)o2)C(=O)NC1=S,18.6%,-10.6%
COc1cc2[nH]c(=S)nc(NC3CCCCCC3)c2cc1OC,-0.2%,i
Cc1cccc(C(O)(C(=O)NNc2ccc3ccccc3n2)c2cccc(C)c2)c1,-25.2%,-40.1%
COc1cc(-c2cc(N)n(S(=O)(=O)c3ccccc3)n2)cc(OC)c1OC,-20.3%,-16.1%
Cc1cc(NC(=O)c2ccc(S(=O)(=O)N3CCOCC3)cc2)no1,-12.6%,-18.3%
CCc1nn2c(=O)cc(COC(=O)C(CC)c3ccccc3)nc2s1 (configuration not stated),-5.6%,-4.1%
O=C(c1ccc(F)cc1F)N1CCC(c2noc(-c3ccc(S(=O)(=O)N4CCCC4)cc3)n2)CC1,-11.8%,-11.6%
COc1cccc(OCC(O)CN2CCC(CN3C(=O)c4cccc5cccc(c45)C3=O)CC2)c1 (configuration not stated),-23.5%,-22.8%
CCC(=O)N=c1n(C)c2ccccc2n1CCOc1ccccc1,1.3%,-10.5%
CC(=O)c1c(COC(=O)c2ccc(Cl)cc2)nc2ccccc2[n+]1[O-],-9.6%,-35.6%
CCN(CC)Cc1c(C(=O)N/N=C/c2ccc(C)o2)nnn1-c1nonc1N,9.2%,-22.3%
O=C(Nc1ccc(Cl)cc1)N1CCc2ccccc2C1,-6.9%,-3.1%
O=C(O)CCNc1cc2ccccc2cc1C(=O)O,-9.2%,-12.7%
COc1cccc(-n2ccnc2SCC(=O)Nc2cccc(C)c2C)c1,-9.6%,-24.8%
Cc1cc(C)n2nc(SCC(=O)N3CCCC(C)C3)nc2n1 (configuration not stated),-10.1%,i
Cc1c(/C(O)=C2/C(=O)C(=O)N(Cc3cccnc3)C2c2cccs2)cnn1-c1ccccc1 (configuration not stated),11.4%,7.8%
CC(C)N(Cc1ccccc1)C(=O)CC(=O)N(Cc1ccccc1)C(C)C,-1.0%,-1.7%

# In a second layout: entries from further up.
smiles | Vaccinia Venus | VACV mCherry inh
COC(=O)c1sc(N2C(=O)C(O)=C(C(=O)c3ccc(C)o3)C2c2ccc(F)cc2)nc1C (configuration not stated) | -3.3% | i
O=C(c1ccc(F)cc1F)N1CCC(c2noc(-c3ccc(S(=O)(=O)N4CCCC4)cc3)n2)CC1 | -11.8% | -11.6%

# Going on with the list:
SMILES,Vaccinia Venus,VACV mCherry inh
CCCCC(=O)Nc1ccc(S(=O)(=O)N2CCCCC2c2cccnc2)cc1 (configuration not stated),-21.2%,-6.2%
Cc1ccc(S(=O)(=O)CCC(=O)Nc2ccc3c(c2)OCO3)cc1,11.2%,6.3%
NC(=O)COC(=O)CSc1cccc2cccc(Cl)c12,-11.1%,i
O=C(OCc1ccc(Cl)cc1)c1cccnc1Cl,-2.7%,-1.5%
CC(=O)Nc1cc(-c2ccc(N3CCN(C)CC3)cc2)cn2c(-c3cccc(C(=O)N(C)C)c3)cnc12,-5.4%,-12.8%
CCc1ccc2c(c1)NC(c1cccs1)=NC(c1ccc(F)cc1)=N2,-5.3%,-7.4%
COc1ccc(C(=O)Nc2nnc(C)s2)cc1,0.8%,-6.0%
O=C(CSc1n[nH]c(-c2ccc(F)cc2)n1)N1CCN(c2ccc(F)cc2)CC1,-9.8%,i
C=CS(=O)(=O)N(Cc1ccccc1Br)[C@H](CO)CC(C)C,1.41µM*,?
Cc1ccc(C)c(N2CCN(C(=O)c3csc(C)c3C)CC2)c1,-16.3%,i
Cc1onc(-c2ccccc2Cl)c1C(=O)Oc1cccc2cccnc12,-7.0%,-13.5%
O=C(CN(C(=O)CNC(=O)c1ccco1)c1ccc(F)c(Cl)c1)NC1CCCCC1,0.2%,-2.1%
C/C=C/c1ccc(OCC(=O)Nc2cc(C(F)(F)F)ccc2N2CCOCC2)c(OC)c1,-5.3%,-8.8%
Cc1ccc(NS(=O)(=O)c2c(C)nc3sc(C)c(C)n3c2=O)cc1F,-24.5%,-23.3%
CCCCn1c(N)c(N(CCOC)C(=O)CN(C)S(=O)(=O)c2ccc(F)cc2)c(=O)[nH]c1=O,-7.9%,-13.8%
CCOc1ccc(CC(=O)Nc2nccs2)cc1OCC,-2.3%,-9.7%
CCOC(=O)Cn1c2ccccc2c2nc3ccccc3nc21,6.6%,-1.0%
CC(=O)c1ccc(NC(=O)Cn2cnc(S(=O)(=O)N3CCc4ccccc43)c2)cc1,-19.3%,-1.6%
O=C1COc2ccccc2C(c2nc3ccccc3[nH]2)N1C1CC1 (configuration not stated),1.4%,-4.7%
CCc1ccc(C2CC(=O)c3c([nH]c(C(=O)OCC4CCCCC4)c3C)C2)cc1 (configuration not stated),-10.4%,-9.1%
Cc1ccc(-c2noc(CNC(=O)COc3cc(C)c(Br)c(C)c3)n2)cc1,-9.9%,1.2%
COc1ccc(C(CC(=O)O)N2C(=O)CCC2=O)cc1 (configuration not stated),5.3%,-7.1%
CC(O)CO (configuration not stated),-14.8%,-5.3%
Cc1cc(C)c(S(=O)(=O)N2CCN(C(=O)C(C)Cn3cncn3)CC2)c(C)c1 (configuration not stated),4.4%,-6.8%
COc1cc(C(=O)N/N=C/c2ccsc2C)cc(OC)c1OC,?,?
COc1cc2ccccc2c2c1CCCC2=O,-9.1%,/
O=C(NNc1nc(N2CCOCC2)nc(N2CCOCC2)n1)c1ccccc1,-2.6%,-17.9%
Nc1nc(Nc2ccccc2)nc(NCc2ccco2)c1[N+](=O)[O-],?,-25.8%
CCc1cc2c(=O)[nH]c(N3CCCC3)nc2s1,-12.6%,-10.3%
c1ccc(C2Nc3ccccc3Oc3ccccc32)cc1 (configuration not stated),-15.4%,-2.1%

# Assay outcomes from PubChem.
